# Screens (PubChem BioAssay)
# MEX-5 binding = C. elegans MEX-5 TCR-2 RNA binding activity; MEX-5/FITC-TCR2 RNA binding, fluorescence polarization; active compounds read low; activity score (negative = inhibition of binding), % at 10 µM; 300,000 tested, 0.38% active;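 active = inhibition past about -25% in most replicates, and total fluorescence under double the plate's negative control median, limit read from the data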;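 note: 0% = DMSO and -100% = 5 µM competing unlabeled TCR2 RNA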
# MCL1 BIM primary = inhibitors of human MCL1 binding to BIM-BH3 peptide. Q07820. 320,000 tested, 0.68% active. GST-MCL1 / FITC-Bim-BH3 fluorescence polarization. AID 2057. inhibition, % at 10.9 µM;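 active = inhibition above the mean inhibition of all tested compounds plus 3 SD, set per campaign, cut at about 40% in these data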;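 note: 0% = DMSO wells and 100% = unlabeled Bim-BH3 peptide control; higher means more loss of mP so more displacement of Bim peptide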
# PAD4 FP inh = blocks human protein arginine deiminase 4; Q9UM07; recombinant PAD4, RCA probe fluorescence polarization; inhibition, % at 6.36 µM; 330,000 tested, 0.41% active;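 active = percent inhibition above a cutoff equal to the mean of all tested compounds plus 3 SD, cut at about 15% in these data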;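 note: 0% = PAD4 with RCA probe and DMSO and 100% = probe without PAD4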
# TPT1 inhibitor = blocks Candida albicans tRNA 2'-phosphotransferase; inhibition, % at 5 µM; 300,000 tested, 0.81% active; recombinant caTPT1, FP RNA substrate dephosphorylation;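 active = inhibition above the mean of all tested compounds plus 3 SD, set per screening campaign, cut at about 24% in these data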;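 note: plate controls were DMSO alone for no effect and ferristatin control at 100 nM for full effect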
# GSTO1 counter = blocks human GSTO1 in RBBP9 counter-screen. inhibition, % at 5.96 µM. P78417. 300,000 tested, 1.1% active. recombinant GSTO1, activity-based probe fluorescence polarization;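 active = inhibition above the campaign mean inhibition plus 3 SD, cut at about 35% in these data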;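 note: 0% = GSTO1-1 with DMSO and 100% = wells lacking GSTO1-1 enzyme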
# Target sequence (P78417 whole entry, looked up): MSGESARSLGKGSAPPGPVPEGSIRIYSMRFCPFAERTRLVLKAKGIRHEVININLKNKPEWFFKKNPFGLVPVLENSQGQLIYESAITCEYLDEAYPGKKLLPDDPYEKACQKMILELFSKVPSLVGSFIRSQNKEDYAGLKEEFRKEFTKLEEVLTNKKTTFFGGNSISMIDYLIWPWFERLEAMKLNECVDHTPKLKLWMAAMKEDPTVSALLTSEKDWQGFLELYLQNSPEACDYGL
# Fam108B counter = counter-screen for RBBP9 inhibitors: inhibitors of mouse Fam108B; recombinant Fam108B, FP-Rh probe fluorescence polarization; AID 1947; inhibition, % at 9.51 µM; 300,000 tested, 0.33% active;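 active = inhibition above the screen mean inhibition plus 3 SD, computed separately per campaign, cut at about 18% in these data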;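 note: inhibitors lower polarization as less probe binds the enzyme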
# GLD-1 RNA inh = GLD-1-TGE RNA interaction inhibition (C. elegans). Q17339. purified GLD-1 + fluorescein TGE RNA, fluorescence polarization. inhibition, % at 5.96 µM. 320,000 tested, 0.44% active. AID 2280;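 active = percent inhibition above a per-plate cutoff, the plate mean of test compounds plus 3 SD, cut at about 30% in these data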;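 note: 0% = DMSO wells with GLD-1 and probe and 100% = wells lacking GLD-1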
# Target sequence (Q17339 whole entry, looked up): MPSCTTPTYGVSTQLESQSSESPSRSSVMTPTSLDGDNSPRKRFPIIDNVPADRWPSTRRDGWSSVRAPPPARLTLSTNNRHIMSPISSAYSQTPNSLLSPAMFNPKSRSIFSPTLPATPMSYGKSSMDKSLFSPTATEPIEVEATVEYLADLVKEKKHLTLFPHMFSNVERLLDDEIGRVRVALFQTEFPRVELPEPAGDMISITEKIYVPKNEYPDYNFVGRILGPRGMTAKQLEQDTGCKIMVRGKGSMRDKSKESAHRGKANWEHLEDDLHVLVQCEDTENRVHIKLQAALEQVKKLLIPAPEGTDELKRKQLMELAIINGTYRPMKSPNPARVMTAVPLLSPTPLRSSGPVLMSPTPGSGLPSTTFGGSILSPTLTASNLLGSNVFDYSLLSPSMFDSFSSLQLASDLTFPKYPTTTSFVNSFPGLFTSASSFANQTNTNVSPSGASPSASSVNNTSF
# BCLXL inh = inhibitors of human Bcl-xL; Q07817; GST-Bcl-xL / FITC-Bim BH3 peptide fluorescence polarization; inhibition, % at 10.9 µM; 320,000 tested, 0.7% active; AID 2129;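 active = inhibition above the mean of all tested compounds plus 3 SD, cutoff set per campaign, cut at about 30% in these data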;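 note: 0% = DMSO wells and 100% = unlabeled Bim-BH3 peptide competitor; inhibitors lower millipolarization by displacing the labeled peptide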
# Target sequence (Q07817 whole entry, looked up): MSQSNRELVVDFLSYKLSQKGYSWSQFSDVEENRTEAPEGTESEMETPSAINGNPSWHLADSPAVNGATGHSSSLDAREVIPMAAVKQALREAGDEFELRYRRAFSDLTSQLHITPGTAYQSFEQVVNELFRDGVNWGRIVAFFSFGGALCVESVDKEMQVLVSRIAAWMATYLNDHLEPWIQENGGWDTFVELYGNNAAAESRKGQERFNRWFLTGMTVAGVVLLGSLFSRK
# An asterisk follows results filed as active; nt = not tested or not shown.
# The line under a structure holds: MCL1 BIM primary, BCLXL inh, PAD4 FP inh, TPT1 inhibitor, GSTO1 counter, MEX-5 binding, Fam108B counter, GLD-1 RNA inh
COc1ccc(C2SC[C@@H](C(=O)O)N2C(C)=O)cc1 (stereo partly specified)
    6.5, 8.1, 1.4, -1.7, 1.9, 1.2, 3.7, 3.5
Cc1ccc(S(=O)(=O)Nc2ccc3cn[nH]c3c2)c(C)c1
    0.1, -0.6, -5.5, nt, nt, nt, nt, 3.5
CC(=O)CSc1nnc(-c2ccco2)n1-c1ccccc1
    -8.4, -4.0, -1.3, 0.6, 0.6, 2.4, 5.9, -6.0
CC1CCN(C(=O)CCCNC(=O)Cn2cnc3sc4c(c3c2=O)CCCC4)CC1
    5.9, 5.3, -2.5, -5.3, 4.5, -0.8, -0.2, -1.3
CC(C)C(C(=O)OCC(=O)c1ccc2c(c1)NC(=O)CO2)N1C(=O)c2ccccc2C1=O (stereo unspecified)
    0.1, -5.0, -5.6, -0.5, 1.6, 0.7, -0.6, -3.6
CCCCn1c(SCC(=O)OCC)nc2c(sc(=S)n2-c2ccccc2OC)c1=O
    0.6, 1.9, -3.4, -3.6, -6.4, -1.1, -2.0, -4.1
CCn1c2ccccc2c2cc(NC(=O)COC(=O)c3cc(Cl)c(N)cc3OC)ccc21
    -2.2, 3.8, -5.3, -0.3, -1.6, -0.8, 2.7, -3.6
COc1ccc(NC(=O)c2ccc3c(=O)n(-c4ccc(OC)cc4OC)c(=S)[nH]c3c2)c(OC)c1
    7.3, 12.2, 1.8, -1.6, -1.4, 0.1, -1.0, -2.9
COc1cc(C#N)ccc1OCC(=O)N1CCc2ccccc2C1
    -10.8, -3.0, -1.0, 1.3, 4.5, 1.7, 6.2, -11.1
COC(=O)C(C)n1cnc2c(nnn2-c2ccccc2)c1=O (stereo unspecified)
    3.9, 0.0, 1.1, -3.0, -5.0, 2.2, 3.2, -6.7
Nc1ccccc1Oc1ncc(C(F)(F)F)cc1Cl
    9.9, 8.7, -0.5, 0.8, 15.8, 1.1, -4.0, 5.3
COc1cccc(CNc2nc3ccc(C)cc3n3cnnc23)c1
    -4.2, -1.3, 1.2, 8.3, 4.5, 4.9, -4.9, -5.0
CN(CCC#N)CC(=O)Nc1ccc(NC(=O)CN(C)CCC#N)cc1
    1.6, 5.7, 1.3, -0.3, 5.3, 2.2, -1.6, -3.1
CC(C)c1ccc(O)c(NC(=S)NC(=O)c2ccc3c(c2)OCO3)c1
    0.6, 4.1, -1.1, 1.5, -16.9, -2.6, -3.9, 6.3
COc1ccccc1CNC(=O)CN(C)S(=O)(=O)c1cccc2cccnc12
    -6.9, 3.2, 1.2, -3.1, 9.8, -0.2, 0.7, 0.6
Cc1cc2c(ncn2Cc2ccccc2)c([N+](=O)[O-])c1C
    1.0, 7.3, -2.0, -1.4, -2.3, -2.2, 8.1, 2.9
O=C(CCNC(=O)C1CCN(S(=O)(=O)c2ccccc2)CC1)NCc1cccc(Cl)c1
    -1.7, 0.5, 3.4, 3.6, -4.7, 1.6, -2.4, 5.1
O=c1[nH]c(CO)nc2c1oc1ccccc12
    6.2, 1.3, -1.3, -0.8, 0.8, 0.8, -1.2, 5.9
CC1CCCCN1C(=O)COc1ccc(S(=O)(=O)N2CCCC2)cc1[N+](=O)[O-] (stereo unspecified)
    -0.6, 2.1, 5.0, nt, nt, nt, nt, -1.2
C=C(C)c1cccc(C(C)(C)NC(=O)NCC2COCCO2)c1 (stereo unspecified)
    4.9, 7.0, -4.0, -1.6, -4.8, -0.1, -7.2, 7.0
CC(C)CCNC(=O)C1CC(=O)N(CCc2ccccc2)C1 (stereo unspecified)
    -3.7, -1.1, -1.0, 1.5, 3.1, -0.1, -7.6, 3.9
Cc1[nH]n2c(=O)c(C#N)c(-c3ccccc3)nc2c1-c1ccccc1
    8.0, 9.6, -1.0, 2.7, 2.4, 1.4, -0.3, 5.9
CCOC(=O)c1sc(S(C)(=O)=O)c2c1CC(C)(C)C/C2=N/O
    -3.6, 2.4, -0.9, -0.1, -4.5, -0.3, 3.1, -0.1
Cc1ccc(S(=O)(=O)N2CCN(CC(=O)NC3CCCc4ccccc43)CC2)cc1C (stereo unspecified)
    4.4, 3.3, -1.8, 0.7, -5.2, -1.1, 1.4, -3.5
CC(C)[C@H](NC(=O)C1CCN(S(=O)(=O)c2ccc(F)cc2)CC1)C(=O)N1CCCCCC1
    -2.1, 0.2, -1.6, 0.1, 0.1, -2.6, 0.2, -4.4
CCN(CC)S(=O)(=O)c1cccc(C(=O)OCC(=O)NCCN2C(=O)CSC2=O)c1
    -10.0, -6.3, 2.6, nt, nt, nt, nt, 2.4
COc1ccc(S(=O)(=O)N2CCCCCC2)cc1C(=O)N(C)CC(=O)Nc1ccccc1Br
    -6.1, -3.0, 4.3, -3.0, -6.2, 3.0, 0.9, 0.5
COc1ccc(CC(=O)N2CCc3cc(OC)c(OC)cc3C2)cc1
    -3.0, -0.4, -4.6, -1.9, 3.5, 2.4, -1.1, 2.8
Cc1nc(SCC(=O)Nc2cc(S(=O)(=O)N3CCOCC3)ccc2Cl)nc(C)c1C
    -1.6, 2.0, -5.1, nt, nt, nt, nt, -1.2
CCN(CC)S(=O)(=O)c1cccc(NC(=O)COC(=O)c2n[nH]c(=O)c3ccccc23)c1
    -3.6, 6.8, -6.0, 0.5, -5.5, 0.0, -0.4, -1.2

# Single records, as listed above. Screens in order: MCL1 BIM primary	BCLXL inh	PAD4 FP inh	TPT1 inhibitor	GSTO1 counter	MEX-5 binding	Fam108B counter	GLD-1 RNA inh
# O=c1[nH]c(CO)nc2c1oc1ccccc12 in the list: 6.2	1.3	-1.3	-0.8	0.8	0.8	-1.2	5.9
# Nc1ccccc1Oc1ncc(C(F)(F)F)cc1Cl in the list: 9.9	8.7	-0.5	0.8	15.8	1.1	-4.0	5.3
# COc1cc(C#N)ccc1OCC(=O)N1CCc2ccccc2C1 in the list: -10.8	-3.0	-1.0	1.3	4.5	1.7	6.2	-11.1
# CCOC(=O)c1sc(S(C)(=O)=O)c2c1CC(C)(C)C/C2=N/O in the list: -3.6	2.4	-0.9	-0.1	-4.5	-0.3	3.1	-0.1
# Cc1[nH]n2c(=O)c(C#N)c(-c3ccccc3)nc2c1-c1ccccc1 in the list: 8.0	9.6	-1.0	2.7	2.4	1.4	-0.3	5.9

# Continuation.
# The line under a structure holds: MCL1 BIM primary, BCLXL inh, PAD4 FP inh, TPT1 inhibitor, GSTO1 counter, MEX-5 binding, Fam108B counter, GLD-1 RNA inh
Cc1cc(C)c(NC(=O)C2CCCN2C(=O)NC2CCCCC2)c(C)c1 (stereo unspecified)
    8.8, 4.2, -2.3, -1.3, -2.9, 2.0, -4.5, -5.1
Cc1ccccc1S(=O)(=O)c1c(C)cc(C)n(C(C)C)c1=O
    1.2, 5.2, 5.8, -2.5, -2.5, -0.3, 2.2, -0.8
CCCOC1(NC(=O)c2ccccc2)C(C)=CC(=O)C=C1C
    -6.5, 5.7, 1.1, 3.8, 3.6, 2.8, 0.2, -0.8
CC1CCCC(NC(=O)c2cc(S(=O)(=O)N3CCCCC3)ccc2Cl)C1C (stereo unspecified)
    10.6, 3.4, 5.0, nt, nt, nt, nt, 4.3
Cc1ccc(SCC(=O)OCC(=O)NC(C)c2ccc(F)cc2)cc1 (stereo unspecified)
    0.9, 1.9, -5.1, nt, nt, nt, nt, 0.8
COc1ccc(-c2nnc(SCC(=O)Nc3cc(C)on3)n2C)cc1OC
    8.0, 5.3, -0.1, -7.4, 2.9, -1.1, 2.7, -0.2
COc1ccc(-c2nc3ccccc3o2)cc1NC(=O)c1ccc(Br)o1
    9.5, 2.9, -3.7, -0.1, 1.0, -2.7, -18.2, -0.1
CCCc1[nH]nc2c1C(c1ccc(OC)c(Cn3nc(C)c(Br)c3C)c1)C(C#N)=C(N)O2 (stereo unspecified)
    0.9, 0.8, -3.9, 4.3, 4.1, 1.6, 0.9, 5.5
Cc1cccc(/C=N/NC(=O)CNc2cccc3ccccc23)n1
    35.8, 8.4, -4.3, 1.6, 0.8, 0.1, 7.6, 4.0
CCc1cccc(CC)c1NC(=O)CN1CCc2cc(OC)c(OC)cc2C1
    2.9, 0.5, 4.5, -0.3, 5.8, 0.9, 5.5, 2.0
CC1CCN(C(=O)CCNC(=O)Cn2cnc3sc4c(c3c2=O)CCCC4)CC1
    -2.7, 4.7, 0.7, -2.7, 0.1, -0.5, 2.8, 10.2
CCOc1ccc(CCNc2nc3ccc(C)cc3n3cnnc23)cc1OCC
    -1.9, 1.1, 0.2, -0.8, 2.9, 0.2, -2.2, 3.6
O=C(CNC(=O)Cn1cnc2sc3c(c2c1=O)CCCC3)NCc1ccccn1
    -5.6, -3.1, 1.5, -0.5, -2.1, 2.3, 3.0, 3.1
CCN(CC)c1ccc(S(=O)(=O)N2CCOCC2)cc1NC(=O)CN1CCc2ccccc2C1
    4.4, 0.1, 3.0, -4.1, -2.9, 0.7, 0.7, 3.8
O=C(c1sc2ccccc2c1Cl)N1CCN(c2ccccn2)CC1
    0.9, 2.6, -3.6, 3.3, 1.1, 1.7, 4.5, -4.7
CCCOc1ccc(S(=O)(=O)N2CCCC2)cc1[N+](=O)[O-]
    -5.4, -1.9, 2.0, -2.7, 2.3, 1.1, 3.4, 0.3
COc1ccc2nc(Nc3nc4cc5c(cc4s3)OCO5)sc2c1
    16.1, 7.0, -3.7, -1.5, 1.0, -0.8, 3.2, -1.1
COc1cc(S(=O)(=O)Nc2cccc3cn[nH]c23)c(OC)cc1Cl
    -0.6, 0.6, -3.5, -1.2, -0.4, 2.0, 0.4, 1.6
O=C(c1ccc(S(=O)(=O)N2CCCC2)cc1)N1CCN(Cc2ccc3c(c2)OCO3)CC1
    3.2, 5.5, -1.2, -4.0, 7.4, -1.3, 2.6, -3.8
CC(NC(=O)CCC(=O)NCc1ccc(F)cc1)c1ccccc1 (stereo unspecified)
    -12.1, -10.2, -2.8, -5.4, 7.9, 0.2, 0.2, 1.8
COc1ccc(C(CC(=O)Nc2ccc(Cl)cc2F)NC(=O)C(F)(F)F)cc1 (stereo unspecified)
    3.5, 1.4, 1.9, 3.5, -0.7, -1.7, -5.1, 3.7
CCN(CC)CCn1c(NC(=O)c2ccccc2O)nc2ccccc21
    2.2, -0.5, -2.3, -2.4, -4.6, -0.9, 0.9, -0.6
C=CCn1c(C)cc(C(=O)COc2ccc(S(=O)(=O)N3CCCC3)cc2[N+](=O)[O-])c1C
    -11.7, -3.2, 2.8, 1.8, 15.3, 2.9, -0.3, 0.1
c1ccc(-c2nn3cnnc3c3ccccc23)cc1
    -1.3, 1.4, -4.1, 1.0, -4.2, -0.3, -3.3, -12.2
COc1ccc(C)cc1NS(=O)(=O)c1ccc2c(c1)NC(=O)C(C)S2 (stereo unspecified)
    -4.3, 3.4, -1.1, -2.2, 1.6, -1.4, 0.6, 3.3
Cc1ccc(NS(=O)(=O)c2cc(-c3n[nH]c(=O)c4ccccc34)ccc2C)cc1
    10.7, 4.8, 2.5, -3.2, -27.4, 0.2, -9.4, 4.4
COc1ccccc1/C=C/C=N/n1c(-c2ccc(Cl)cc2Cl)n[nH]c1=S
    -3.8, -8.0, 1.7, 0.7, -11.7, 2.4, 1.3, 3.9
O=c1[nH]c(C2CCCN(S(=O)(=O)c3ccccc3)C2)nc2c1nnn2Cc1cccc(Cl)c1 (stereo unspecified)
    11.6, 3.8, 2.1, -3.0, 18.5, 1.2, -3.0, -0.1
CN(C)S(=O)(=O)c1ccc(Cl)c(NC(=O)CN2CCc3ccccc3C2)c1
    -1.9, 0.7, -4.5, 0.7, -0.8, 1.0, -2.8, -3.2
O=C(NCCc1cccc(F)c1)C1CCN(S(=O)(=O)c2ccc(F)cc2)CC1
    -5.7, -1.0, 4.8, -3.9, 0.4, 6.6, 9.4, -19.8

# Only part of the results is shown; rates above refer to the full screens.
